Screening results as filed in PubChem BioAssay.
Rce1 inhib = yeast Rce1p protease inhibitors, primary screen, biochemical, fluorescence, cell-free homogeneous. CAAX prenyl protease 2 (Saccharomyces cerevisiae (strain ATCC 204508 / S288c)), Q03530. yeast membranes, quenched prenylated peptide cleavage fluorescence. calls only. hit rate 0.27% among 290,000. AID 2563, 2010;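 active means fall in fluorescence gain of 50% or more versus controls, with final raw signal at or below 3038400; inconclusive means same 50% fall but final raw signal above 3038400; inactive means fall in fluorescence gain under 50%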;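 further: plate controls were neutral control wells for no effect and wells lacking membranes for full effect; tested at 10 µM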
Env fusion inh = inhibitors of HIV-1 Env-driven cell-cell fusion, primary screen, HeLa-JRFL effector, CEM21 target cells, luciferase; inhibition, % at 12.3 µM; hit rate 1.1% among 360,000; AID 651610, 2012;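 active means mean replicate inhibition score of at least 50 and every replicate individually at or above 50; inconclusive means only one of the two criteria met; inactive means mean below 50 and not all replicates reaching 50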;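 further: 0% = plate neutral controls and 100% = maraviroc near 300 nM; one replicate is shown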
MT1-MMP act inh = blockers of MT1-MMP proenzyme processing, primary screen, HT1080 RFP-PRO-GFP cells, GFP/RFP fluorescence. GFP/RFP ratio fluorescence, overnight; percent of plate control window, DMSO zero. GFP/RFP ratio change, % at 20 µM. hit rate 0.061% among 360,000. AID 651647, 2012. Matrix metalloproteinase-14 (Homo sapiens), P50281;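 active means GFP/RFP ratio change of at least 30% with cell ATP level not reduced by more than half and red fluorescence within 50% of control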; further: strong numbers were not always called active
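Assay system: RFP-PRO-GFP reporter HT1080 cells; read-out basis: GFP/RFP fluorescence ratio; benchmarks: DMSO wells and RFP-L50D-GFP cells; doses: 20 µM single dose, 1% DMSO; schedule: overnight cell settling, then overnight compound exposure, 37 °C, 5% CO2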
CSC inhib = cancer stem cell viability inhibitors, primary screen, luminescence | cancer stem cell-like cells viability | inhibition, % at 7.5 µM | hit rate 1.1% among 300,000;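 active means mean at 75% or more and at least half the replicates too; inconclusive means mean and replicates disagree; tested in HMLE shEcad cells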;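 further: 0% = median of negative and 100% = median of positive control wells; the first replicate is given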
eIF4H FP inh = human eIF4H binding inhibitors, primary screen, translation initiation inhibitor project, biochemical, uHTS, fluorescence polarization | hit rate 0.94% among 290,000 | inhibition, % at 35 µM | eIF4H fluorescence polarization binding assay | Eukaryotic translation initiation factor 4H (Homo sapiens), Q15056;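 active means 50% or more with normal probe brightness, or confirmed in later tests; inconclusive means above 50% with abnormal brightness, or retests that disagree; inactive means below 50% or failed in later tests; about a fifth of its hits are not listed in these tables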;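 further: calls also rest on retests at 20 µM and on dose response follow-up; 0% = protein and probe with vehicle and 100% = probe without protein; strong numbers were not always called active; many hits fall short of the cut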
Yeast UUG start = modulators of yeast start codon fidelity, primary screen, whole organism, S. cerevisiae, single point, plate reader. S. cerevisiae UUG-firefly luciferase reporter, luminescence/redox ratio. activity score, % at 18.7 µM. hit rate 0.13% among 350,000. AID 602363, 2012;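 active means replicate mean at a twofold rise or more, about +100% in these data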;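 further: firefly luciferase made from a UUG start codon reports start codon fidelity; reporter light over untreated wells divided by growth signal over untreated wells; some hits fall short of that in this replicate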
PABP FP inh = PABP poly(A) RNA binding inhibitors, primary screen, biochemical, fluorescence polarization, uHTS. Polyadenylate-binding protein 1 (Homo sapiens), P11940. hit rate 1% among 290,000. AID 2014, 2009. inhibition, % at 35 µM;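 active means 50% or more with normal probe brightness, or confirmed in later tests; inconclusive means above 50% with abnormal brightness, or retests that disagree; inactive means below 50% or failed in later tests; about a fifth of its hits are not listed in these tables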;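 further: calls also rest on retests at 20 µM and on dose response follow-up; controls were probe without protein and protein plus probe with vehicle; some compounds called inactive have numbers as strong as hits; many hits fall short of the cut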
Target sequence (P11940 whole entry, looked up): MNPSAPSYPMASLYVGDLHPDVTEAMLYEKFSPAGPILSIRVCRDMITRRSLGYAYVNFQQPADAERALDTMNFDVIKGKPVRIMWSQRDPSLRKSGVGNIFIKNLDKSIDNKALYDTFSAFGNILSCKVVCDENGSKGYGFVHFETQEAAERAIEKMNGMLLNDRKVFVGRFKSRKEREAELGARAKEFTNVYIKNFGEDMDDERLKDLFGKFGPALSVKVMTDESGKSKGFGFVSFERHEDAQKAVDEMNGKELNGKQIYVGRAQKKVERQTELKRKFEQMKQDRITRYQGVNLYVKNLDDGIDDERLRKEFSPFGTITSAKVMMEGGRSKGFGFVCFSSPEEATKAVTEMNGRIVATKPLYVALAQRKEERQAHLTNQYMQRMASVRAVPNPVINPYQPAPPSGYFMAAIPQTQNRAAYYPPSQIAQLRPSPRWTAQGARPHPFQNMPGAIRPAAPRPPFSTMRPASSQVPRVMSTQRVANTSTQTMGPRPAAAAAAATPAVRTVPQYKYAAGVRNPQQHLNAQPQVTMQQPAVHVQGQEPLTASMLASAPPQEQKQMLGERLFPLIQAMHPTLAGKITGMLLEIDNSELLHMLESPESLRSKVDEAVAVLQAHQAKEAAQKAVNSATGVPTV
eIF4H FP inh retest = second read-out of eIF4H FP inh, no call of its own (marks repeat the call); inhibition, %; compound at 20 µM; confirmation average;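 mean of two retest wells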
PABP FP inh retest = second read-out of PABP FP inh, no call of its own (marks repeat the call); inhibition, %; compound at 20 µM; confirmation repeats;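 mean of two retest wells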
MT1-MMP act inh RFP = further read-out of MT1-MMP act inh, marked with its call; RFP signal change, %; measured here: RFP expression control read;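 0 = vehicle wells; hits needed this value within 50% of zero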
The depositor's hits bear a star; i = inactive; ? = inconclusive; . = no result given.

SMILES	Rce1 inhib	Env fusion inh	MT1-MMP act inh	MT1-MMP act inh RFP	CSC inhib	eIF4H FP inh	Yeast UUG start	PABP FP inh	others
CCOC(=O)c1ccc(NC(=O)CSc2nc3c(c(=O)n2-c2ccccc2OC)SCC3)cc1	i	-68	-4	-3	-33	4	5	-1
COc1ccc(Cl)cc1N/C(N)=N/c1nc(C)cc(=O)[nH]1	i	6	-2	-2	-1	2	.	10
Cn1nnnc1SCC(=O)NC1CCCCC1	i	.	6	10	4	-2	-13	2
O=C(c1cc([N+](=O)[O-])ccc1Cl)N1CCN(Cc2ccc3c(c2)OCO3)CC1	i	27	6	-11	-5	-2	.	55	eIF4H FP inh retest=-6;PABP FP inh retest=6
CN(C)CCCSc1nc(-c2ccccc2)nc2c1CCC2	i	-13	-17	-8	17	2	-34	-7
CCOC(=O)Cc1csc(NC(=O)C(NC(=O)C2CCC(C)CC2)C(C)C)n1 (centres undefined)	i	-13	-3	-17	-7	1	1	8
CCN(C[C@H]1N[C@@](Cc2ccccc2)(C(=O)OC)[C@H]2C(=O)N(C)C(=O)[C@@H]12)S(=O)(=O)c1ccc(-c2ccccc2)cc1	.	?	-3	-4	.	.	-15	.
Cc1ccc(OCc2ccc(C(=O)Nc3nccs3)o2)cc1	i	-36	6	2	0	0	-23	-7
COCc1cccc(-c2csc(C(O)c3ccc(F)c(F)c3)n2)c1 (centres undefined)	.	5	0	-1	.	.	1	.
CCc1c(C)c2ccc(OC(C)C(=O)NC(Cc3c[nH]c4ccc(O)cc34)C(=O)O)c(C)c2oc1=O (centres undefined)	i	.	.	.	-4	36	39	29
CC(C)C(OC(=O)c1cccs1)C(=O)NCc1cccs1 (centres undefined)	i	5	-8	-11	-4	12	.	-2
NNC(=O)c1cc2c(s1)CCCCCC2	i	.	1	1	1	-2	.	-2
COc1ccc(C(=O)CSc2nc3ncccc3[nH]2)cc1OC	i	-15	8	-3	4	1	9	-1
Cc1ccc(C)c(NC(=O)COC(=O)c2cccc(S(=O)(=O)N3CCCCC3)c2)c1	i	-2	-5	-1	-13	.	5	.
CCOC(=O)c1cnc(/N=C/N(C)C)s1	i	1	0	0	-9	5	.	-8
CC(C)Cc1ccc(S(=O)(=O)N2CCCC2)cc1	i	-40	3	2	-6	-12	-3	-9
Cc1ccc(Cc2nnc(SCC(=O)Nc3ccccc3C)[nH]c2=O)cc1	i	10	-2	2	-7	.	.	.
CC(O)C(NS(=O)(=O)c1ccc(Cl)cc1)C(=O)OCc1nnc(-c2ccccc2)o1 (centres undefined)	i	.	-1	5	.	6	7	12
COc1ccc(S(=O)(=O)N2CC3CCCN3c3cc(C(F)(F)F)ccc32)cc1 (centres undefined)	.	50	0	-6	27	-6	5	43
COc1ccc(CCn2c(=N)c(C(=O)NCC3CCCO3)cc3c(=O)n4cccc(C)c4nc32)cc1 (centres undefined)	i	-14	-4	0	4	-5	-23	-3
CCN1CCN(C(=O)Nc2ccc(OC)cc2OC)CC1	i	8	-1	2	-7	-3	.	1
COCCNC(=O)C(C#N)c1nc2ccccc2nc1N1CCCCCC1 (centres undefined)	i	.	-4	-3	-2	?	-23	?
Cc1cc(/C=C2\C(=N)N3N=CSC3=NC2=O)c(C)n1Cc1ccccc1	i	-32	-2	2	24	17	-26	12
c1cn(CCCNc2ncnc3nc[nH]c23)cn1	i	1	4	2	7	3	-19	-2
Cc1cc(C)c(C)c(OCC(=O)O/N=C(\N)c2cccnc2)c1	i	1	-3	-8	20	-2	.	-2
SMILES	Rce1 inhib	Env fusion inh	MT1-MMP act inh	MT1-MMP act inh RFP	CSC inhib	eIF4H FP inh	Yeast UUG start	PABP FP inh	others
CSc1ccccc1NC(=O)c1ccncc1	i	-72	-2	2	-12	-5	-18	-7
O=C(NNc1nc2c(F)cc(F)cc2s1)C1COc2ccccc2O1 (centres undefined)	i	-4	-1	4	5	-3	.	-4
CCCCn1c(=N)n(CC(=O)c2ccc(OC)cc2)c2ccccc21	i	-4	.	.	1	2	.	-5
COC(=O)CC1=C(C(=O)OC)C(c2ccc3c(c2Cl)OCO3)C(C#N)=C(N)O1 (centres undefined)	i	4	-2	0	-7	5	-5	11
CCN1CCCC(OC(=O)c2cc(-c3ccc(C)cc3)nc3ccccc23)C1 (centres undefined)	i	3	-1	1	36	3	.	-6
O=C(Cn1c(NCCO)nc2ccccc21)c1ccccc1	i	5	-2	3	2	-4	-17	5
CCOC(=O)c1c(O)c2cccc3c2n(c1=O)CC3	.	3	-3	2	-5	-1	.	10
CCOc1cc(/C=C/c2cc(C(F)(F)F)[nH]c(=O)n2)ccc1O	i	25	-11	-2	10	-14	.	2
O=C(/C=C/c1ccc2c(c1)OCO2)c1ccc[nH]1	i	-180	-2	-6	4	9	.	5
CCS(=O)(=O)c1nc(S(=O)(=O)c2ccc(C)cc2)c(N2CCCC2)s1	i	1	-3	1	12	4	-1	-2
CCOC(=O)C1CCCN(CCC(=O)Nc2ccccc2)C1 (centres undefined)	i	.	0	3	-12	0	-17	-2
O=C(c1scc2c1CCCC2)N1CCCCC1	i	-16	-8	1	-8	-2	-29	-12
O=P(OC1CCCCC1)(OC1CCCCC1)C(O)c1cccnc1 (centres undefined)	i	-2	-2	1	-12	-4	-9	10
CC(C)N(C(=O)[C@H]1C[C@H](CC(=O)NCCc2ccccn2)C(=O)N2CCc3c([nH]c4cc(CCC(=O)N(C)C)ccc34)[C@]12C)C(C)C	.	3	-2	3	.	.	-10	.
CC(=O)c1ccc(NCC(=O)N2CCN(S(=O)(=O)c3ccccc3)CC2)cc1	.	.	0	0	-10	.	-12	.
CC(C)(C)c1cc(C(=O)NNC(=O)Nc2ccccc2)n(Cc2ccccc2)n1	.	7	0	-9	7	-8	.	-1
COc1ccc(NS(=O)(=O)c2cc(NC(=O)c3sccc3C)ccc2N2CCOCC2)cc1	.	-8	-2	-8	40	1	-24	-10
O=C(Cn1c(=O)c(=O)n(Cc2ccccc2)c2ccc(Cl)cc21)NCC1CCCO1 (centres undefined)	.	-5	-4	-1	-15	-7	.	1
CCS(=O)(=O)N1Cc2ccccc2CC1C(=O)Nc1ccc(NC(C)=O)cc1 (centres undefined)	i	-39	1	0	0	7	5	2
C=C(C)C(=O)Oc1ccc(N2C(=O)CCC2=O)cc1	i	1	-2	3	-9	4	.	5
COC(=O)c1cccc(NC(=O)CN2C(=O)c3ccccc3C2=O)c1	i	-9	10	9	4	5	5	-4
O=C(Cn1[nH]c(=O)c2ccccc2c1=O)OCC(=O)c1ccccc1	.	-4	1	3	-17	.	-4	.
CCc1ccc(NC(=O)CSc2nnc(-c3cnccn3)n2Cc2ccco2)cc1	i	-27	-1	-4	-18	5	23	12
COc1ccccc1Nc1nn2c(=O)c3ccc(C(=O)NCc4cccnc4)cc3nc2s1	i	.	-2	4	32	36	-9	2
O=C(Nc1cccc(-c2cnc3ccccc3n2)c1)c1cccc(NC(=O)c2ccco2)c1	i	-49	-17	-9	.	-9	1	-6
COc1ccc2oc(C(=O)OCC(=O)/C(C#N)=C(\C)N)c(C)c2c1	i	-9	5	-3	-1	1	.	-2
COC(=O)[C@H](CCSC)NC(=O)Nc1cc(OC)cc(OC)c1	i	-1	6	3	-16	3	.	-3

Grouped by structure: the entries above containing a cyano group (3)
SMILES	Rce1 inhib	Env fusion inh	MT1-MMP act inh	MT1-MMP act inh RFP	CSC inhib	eIF4H FP inh	Yeast UUG start	PABP FP inh	others
COCCNC(=O)C(C#N)c1nc2ccccc2nc1N1CCCCCC1 (centres undefined)	i	.	-4	-3	-2	?	-23	?
COC(=O)CC1=C(C(=O)OC)C(c2ccc3c(c2Cl)OCO3)C(C#N)=C(N)O1 (centres undefined)	i	4	-2	0	-7	5	-5	11
COc1ccc2oc(C(=O)OCC(=O)/C(C#N)=C(\C)N)c(C)c2c1	i	-9	5	-3	-1	1	.	-2

Grouped by structure: the entries above with an NH in an aromatic ring (9)
SMILES	Rce1 inhib	Env fusion inh	MT1-MMP act inh	MT1-MMP act inh RFP	CSC inhib	eIF4H FP inh	Yeast UUG start	PABP FP inh	others
COc1ccc(Cl)cc1N/C(N)=N/c1nc(C)cc(=O)[nH]1	i	6	-2	-2	-1	2	.	10
CCc1c(C)c2ccc(OC(C)C(=O)NC(Cc3c[nH]c4ccc(O)cc34)C(=O)O)c(C)c2oc1=O (centres undefined)	i	.	.	.	-4	36	39	29
COc1ccc(C(=O)CSc2nc3ncccc3[nH]2)cc1OC	i	-15	8	-3	4	1	9	-1
Cc1ccc(Cc2nnc(SCC(=O)Nc3ccccc3C)[nH]c2=O)cc1	i	10	-2	2	-7	.	.	.
c1cn(CCCNc2ncnc3nc[nH]c23)cn1	i	1	4	2	7	3	-19	-2
CCOc1cc(/C=C/c2cc(C(F)(F)F)[nH]c(=O)n2)ccc1O	i	25	-11	-2	10	-14	.	2
O=C(/C=C/c1ccc2c(c1)OCO2)c1ccc[nH]1	i	-180	-2	-6	4	9	.	5
CC(C)N(C(=O)[C@H]1C[C@H](CC(=O)NCCc2ccccn2)C(=O)N2CCc3c([nH]c4cc(CCC(=O)N(C)C)ccc34)[C@]12C)C(C)C	.	3	-2	3	.	.	-10	.
O=C(Cn1[nH]c(=O)c2ccccc2c1=O)OCC(=O)c1ccccc1	.	-4	1	3	-17	.	-4	.
